NPYLR7 ag: mosquito NPYLR7 agonism; HEK293T NPYLR7/Galpha15, GCaMP6s calcium fluorescence; activation, % at 10 µM; hit rate 0.15% among 270,000; AID 1259423; in the data active = activation above about 40%;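 also: 0% = vehicle and 100% = reference agonist at the receptor; some compounds past the cut are filed as inactive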
NPYLR7 ag max-min: recorded beside NPYLR7 ag, whose call it bears; activation, %; measured here: Max-Min RFU normalised activation; some inactives read as strong as hits;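 span of the calcium signal over five minutes; 0% = vehicle and 100% = native peptide agonist; compound fluorescence can raise it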
An asterisk follows results filed as active; & = joins results of further samples.

Values run as follows: NPYLR7 ag	NPYLR7 ag max-min
- Cc1[nH]nc2c1C(c1ccco1)C(C#N)C(=N)O2 (stereo unspecified)
    3	-7
- Cc1ccc(NC(=O)C(=O)Nc2cc3c4c(c2)CCN4C(=O)CC3)cc1F
    8	6
- C=CCNC(=O)CSc1c(CC(C)C)cnc2c1c(=O)n(C)c(=O)n2C
    0	-1
- CCN(CC)C(=O)Oc1ccc2c(ccn2Cc2ccc(Cl)cc2)c1-c1ccc(C#N)cc1
    5	6
- Cc1oc(N)c(C#N)c1C
    2	3
- C/C=C(\C)C(=O)N1CCC(c2cn(CCOCC)c3ccccc23)CC1
    -1	-4
- Cn1c(=O)[nH]c(=O)c2c1nc(N1CCN(Cc3ccccc3F)CC1)n2CCc1ccccc1
    -4	-6
- CSc1ccc(C(=O)CC(C)(C)C(=O)NCCC(C)(C)C)cc1
    -19	-22
- Cc1ccc(CN(Cc2nc3cc(C)ccc3o2)C(=O)c2c(F)cccc2F)cc1
    -1	-4
- C=CC[n+]1c2n(c3ccc(F)c(F)c31)CCCCC2
    2	1
- O=C(Cc1c[nH]c2ccccc12)NN1C(=O)C=C(c2ccccc2)C1=O
    -12	-24
- COc1cccc(C(=O)Nc2ccc(N3CCN(c4ccccc4OC)CC3)c(C(=O)NCc3ccccc3)c2)c1
    14	8
- NC1(C(=O)NCc2cccnc2Oc2ccc(F)cc2F)CCC1
    18	0
- Cc1ccc(NC(=O)C(C)C)c(C(=O)N2CCCN(C)CC2)c1
    1	-4
- COc1cc(CN(CC(O)COc2ccccc2C)C2CC2)cc(OC)c1 (stereo unspecified)
    9	20
- CC(=O)Nc1ccc(-c2nccn2CCn2cccn2)cc1
    21	7
- O=C(Nc1ccc2oc(-c3cccs3)nc2c1)C1CC1
    22	29
- COc1ccc(NC(=S)Nc2ccc3cn[nH]c3c2)cc1
    1	-1
- c1ccc(-c2ccccc2-c2cncnc2)cc1
    2	1
- CCN1CC(CN(C)c2nc3nonc3nc2NCc2ccccc2)CC1=O (stereo unspecified)
    3	2

(next part)
Values run as follows: NPYLR7 ag	NPYLR7 ag max-min
- CN(CC(=O)Nc1cccc(F)c1)C(=O)CCn1c(=O)oc2ccccc21
    1	4
- Cc1ccc(NC(=O)CN2CCCC3(CCc4ccccc43)C2)c(Br)c1 (stereo unspecified)
    3	4
- O=C(c1nn2c(C(F)(F)F)cc(-c3ccc(Br)cc3)nc2c1Cl)N1CCCCC1
    7	5
- COc1ccc(OCc2nc(CSc3nc(C)cs3)cs2)cc1
    18	22
- CC1CCc2c(sc3[nH]c(=S)[nH]c(=O)c23)C1 (stereo unspecified)
    2	-2
- CC(=O)N1CCC(NC(=O)C2CCN(S(=O)(=O)c3ccc4c(c3)OCCO4)CC2)CC1
    6	6
- COc1ccc(CNC(=O)c2cc(S(=O)(=O)NC(C)(C)C)ccc2C)cn1
    2	4
- O=C(Nc1ccccc1F)N1CCSC1c1cccc(OCc2ccccc2)c1 (stereo unspecified)
    16	20
- COc1ccc(N2CCN(C(=O)Nc3ccc(C)cc3)C(C)C2=O)cc1 (stereo unspecified)
    12	9
- CCCCC(NC(=O)c1sc2ncn(C)c(=O)c2c1C)c1cccnc1 (stereo unspecified)
    1	-4
- O=C(Nc1cccnc1Cl)c1cnn2c1NC(c1ccccc1)CC2C(F)(F)F (stereo unspecified)
    35	16
- CCN(CC)c1onc(-c2ccccc2)c1CN(CCN(C)C)C(=O)c1ccccc1F
    1	2
- Cc1ccccc1C1(O)CCN(Cc2ccc(S(C)(=O)=O)cc2)C1 (stereo unspecified)
    9	3
- O=C(c1ccsc1)N1CC[C@@H](c2ccc3c(c2)OCO3)[C@H](O)C1
    1	8
- CC1Cc2ccccc2N1C(=O)CN(C)S(=O)(=O)c1cc(C(F)(F)F)ccc1Cl (stereo unspecified)
    -2	-3
- Cc1cccc(C)c1NC(=O)C1C2CC3OC(=O)C1C3C2 (stereo unspecified)
    -1	-2
- c1ccc(-c2ccc(NCc3cccnc3-n3ccnc3)nn2)cc1
    -23	-22
- CC(=O)c1ccc(N2CCN(Cc3ccc(-n4cncn4)cc3)CC2)nc1
    6	4
- CN1C(=O)Cc2cc(-c3csc(CCN4CCCCC4)n3)ccc21
    0	-1
- COc1ccccc1-c1csc(NC(=O)Cc2cccc3ccccc23)n1
    -4	-5

Going on with the list:
Values run as follows: NPYLR7 ag	NPYLR7 ag max-min
- COc1cc(C/C=C\c2ccccc2)c(OC)cc1O
    1	0
- Cc1cc(N2CCOCC2)n2ncc(-c3ccc(Cl)cc3)c2n1
    5	9
- CCOc1ccccc1N1CCN(C(=O)c2cc(OC)c(OC)c(OC)c2)CC1
    1	2
- Cc1cc(C(=O)N2CCCC3(CCN(C)CC3)CC2)nc(C)n1
    -6	-8
- CCCCNC(=O)C1(C)CCN1Cc1cccc(OC(=O)c2ccccc2)c1 (stereo unspecified)
    3	1
- Cc1nonc1COC(=O)c1c(C)oc(C)c1C
    -2	-9
- CCCn1c(CN2CCCC(C)C2)nc2c1c(=O)n(C)c(=O)n2C (stereo unspecified)
    5	0
- Cc1c2c(n(Cc3cccc(F)c3)c1C(=O)NCc1ccc3c(c1)OCO3)CCCC2
    -9	1
- Cc1ccccc1-c1noc(Cn2cnc3scc(-c4ccccc4)c3c2=O)n1
    2	-4
- CN1CCN(C(CNC(=O)c2ccccc2)c2ccc(N(C)C)cc2)CC1 (stereo unspecified)
    3	1
- COC(=O)C(CCCCN1C(=O)C2C3C=CC(C3)C2C1=O)N1C(=O)C2C3C=CC(C3)C2C1=O (stereo unspecified)
    5	1
- Cc1ccccc1C(c1ncccc1C)N(C)C(=O)C1CCN(CCCOc2ccc(F)cc2)CC1 (stereo unspecified)
    3	1
- C=CC[C@@H]1CC=C[C@@H](C)N1C(=O)CCn1nnc2ccccc21
    6	5
- CCCCCNC(=O)c1ccccc1C(=O)c1ccccc1
    4	9
- CSc1cccc(NC(=O)N2CC(=O)N3CCc4ccccc4C3C2)c1 (stereo unspecified)
    28	15
- CC1CCCCN1S(=O)(=O)c1ccc(Br)c(C(=O)Nc2ccc3c(c2)OCO3)c1 (stereo unspecified)
    3	-2
- CCc1c(C)nc(-n2nc(C)cc2NC(=O)Cc2cccc3ccccc23)[nH]c1=O
    1	0
- CN(CC(=O)Nc1ccccc1Cl)C(=O)CSc1nncn1C1CC1
    4	2
- Cn1c(=O)c2c(nc(Br)n2CCSc2nc3ccccc3s2)n(C)c1=O
    -3	-7
- Cc1c(C)n2c3c(=O)n(C)c(=O)n(C)c3nc2n1-c1ccccc1F
    -1	1

Further structures
Values run as follows: NPYLR7 ag	NPYLR7 ag max-min
- CCOC(=O)C1CCCN(C(=O)c2coc(CN(CCc3c[nH]c4ccccc34)Cc3ccc(OCC)cc3)n2)C1 (stereo unspecified)
    19	14
- CCn1cc(Cn2ccnc2C2CCOC2)cn1 (stereo unspecified)
    3	0
- CC(=O)c1ccc(NC(=O)N(C)c2c(C)nc3ccc(C(=O)N4CCN(C(=O)c5ccco5)CC4)cn23)cc1
    10	14
- O=C(Cc1ccccn1)NCCC(=O)Nc1ccccc1F
    -1	-11
- Cc1cccc(C)c1NC(=O)c1cccc(NC(=O)C(C)n2cccc2)c1 (stereo unspecified)
    2	-9
- CCN1CC(CN(C)Cc2nc(-c3ccc(C(=O)OC)cc3)oc2C)CC1=O (stereo unspecified)
    22&-3	10&-2
- Cc1cnc(C)c(-c2ccc(O)cc2)n1
    0	-3
- COc1cc(/C=C/C(=O)N2CCN(CC(=O)NC(C)C)CC2)cc(OC)c1OC
    -13	-21
- C=CCN(Cc1cccc(OCC)c1)C(=O)C1CCOCC1
    -3	-6
- Cc1ccc(N=Cc2nc(-c3ccc(Cl)cc3)oc2O)c(C)c1
    -6	-11
- CCN1CCN(c2nc3c(C)cccn3c(=O)c2C=C2SC(=S)N(CC(C)C)C2=O)CC1
    7	10
- CC(C)(C)c1ccc(Nc2ncc(S(=O)(=O)N3CCOCC3)s2)cc1
    13	8
- C=C(CC(=O)OC)C(=O)NCCc1cccc(OC)c1
    -8	-15
- CSc1cccc(CN2CCc3c(cccc3NC(=O)c3ccncc3)C2)c1
    5	1
- CCc1ccccc1SCc1ccc(C(=O)N2C3CCC2CC(Oc2ccc(F)cc2F)C3)cc1 (stereo unspecified)
    -20	-20
- Cc1c(C(=O)OCC(C)C)[nH]c2c1C(=O)CCC2
    11	3
- CSc1ncc(CN2CCN(C(C)C)C(CCO)C2)cn1 (stereo unspecified)
    -2	-4
- O=C(c1ccc(Cn2cnnn2)cc1)N1CCCC(c2ccn[nH]2)C1 (stereo unspecified)
    6	3
- COC(C)c1cccc(-c2cc(N)ncn2)c1 (stereo unspecified)
    1	1
- CCC(O)(CC)c1ccccc1N
    -5	-5

(list continues)
Values run as follows: NPYLR7 ag	NPYLR7 ag max-min
- C=CCOCC(O)CN(Cc1c(-c2ccc(F)cc2)noc1N(CC)CC)CC1CC1 (stereo unspecified)
    8	10
- O=c1nc2n3ccc(-c4ccncc4)cc3ncc-2s1
    55*	54*
- CN(CCN1CCCC1=O)C(=O)c1ccc(Br)cc1O
    4&10	-1&7
- CCN(CC)Cc1cnc2c(C(=O)Nc3c(C)cc(=O)[nH]c3C)cnn2c1
    29	16
- CC(Cn1cccn1)NC(=O)Cn1ccc(=O)n(C)c1=O (stereo unspecified)
    5	4
- COC(=O)c1ccc(CC2(C)C(=O)Nc3ccc(-c4ccc(F)cc4)cc32)o1 (stereo unspecified)
    7	7
- CCc1ccc2nc(C)cc(C(=O)N3CCC(CCC(=O)NC4CC4)CC3)c2c1
    8	12
- CC(C)N(CC(=O)N(Cc1cccn1Cc1ccc(F)cc1)C1CCCCC1)C(=O)c1ccc(Cl)cc1
    1	7
- Nc1cc(=O)[nH]c2nnc(SCc3ccc(Br)cc3)n12
    6	4
- CCOC(=O)C1=C(c2ccccc2)Nc2nnnn2C1c1ccsc1 (stereo unspecified)
    -2	-4
- CCCC(=NCc1ccccc1)C1=C(O)C(C(=O)OC)C(C)(C)CC1=O (stereo unspecified)
    0	-1
- COCCN(CC(=O)Nc1cc(C(C)(C)C)nn1-c1cccc(C)c1)C(=O)Nc1c(Cl)cccc1Cl
    6	11
- Cc1[nH]c(=O)c(C#N)c(C)c1CCC(=O)N1CCCCC1
    2	1
- c1csc(-c2cc(CSc3nnnn3C3CC3)no2)c1
    3	6
- Cc1cc2ccccc2n1CCNC(C)Cn1cncn1 (stereo unspecified)
    16	14
- Cc1ccc(-n2c3c(c(=O)[nH]c2=O)C(NC(=O)c2ccc(Cl)cc2)(C(F)(F)F)C(=O)N3)cc1C (stereo unspecified)
    -5	-11
- O=C(NCCN1CCCC1)[C@@]1(OCc2ccccc2F)CC(OCc2ccc(C(F)(F)F)cc2)[C@H](O)[C@H](O)C1 (stereo partly specified)
    -2	5
- COc1ccc(CCNC(=O)CN2[C@@H]3CC[C@H]2CC(O)C3)cc1 (stereo partly specified)
    -3	-4
- O=C(CCc1cccnc1)NC12CC3CC(CC(C3)C1)C2
    -6	-6
- C=CCn1ncc(-c2c(-c3ccccc3)ncn2C2CCC(O)CC2)c1C (stereo unspecified)
    7	5

The results go on.
Values run as follows: NPYLR7 ag	NPYLR7 ag max-min
- COc1nc(NS(=O)(=O)c2ccc(NC(C)=O)cc2)nc(C)c1Cl
    1	-1
- COc1ccc(Cn2c(SC)nc3ccccc32)cc1
    17	19
- Cc1ccc(NC(=O)CSc2nc3[nH]ncc3c(=O)[nH]2)cc1
    -3	-4
- CCN1C=C(c2ccc3ccccc3n2)C(C[N+](=O)[O-])c2ccccc21 (stereo unspecified)
    20	18
- CCOc1ccc(OCCOc2ccc(C)cc2OC)cc1
    -3	-5
- CCCNC(=O)CN1C(=O)NC(C)(c2ccc(F)cc2)C1=O (stereo unspecified)
    -1	-1
- CCOc1ccc(NC(=O)NCc2nnc(SCc3cccc(OC)c3)n2-c2cc(Cl)ccc2Cl)cc1
    -1	7
- FC(F)(F)c1cc(-c2nccnc2NCc2ccccc2)cc(C(F)(F)F)c1
    -6	-10

In another format: entries from further up
SMILES	NPYLR7 ag	NPYLR7 ag max-min
Cc1[nH]nc2c1C(c1ccco1)C(C#N)C(=N)O2 (stereo unspecified)	3	-7
Cc1ccc(NC(=O)C(=O)Nc2cc3c4c(c2)CCN4C(=O)CC3)cc1F	8	6
C=CCNC(=O)CSc1c(CC(C)C)cnc2c1c(=O)n(C)c(=O)n2C	0	-1
CCN(CC)C(=O)Oc1ccc2c(ccn2Cc2ccc(Cl)cc2)c1-c1ccc(C#N)cc1	5	6
Cc1oc(N)c(C#N)c1C	2	3
C/C=C(\C)C(=O)N1CCC(c2cn(CCOCC)c3ccccc23)CC1	-1	-4
Cn1c(=O)[nH]c(=O)c2c1nc(N1CCN(Cc3ccccc3F)CC1)n2CCc1ccccc1	-4	-6
CSc1ccc(C(=O)CC(C)(C)C(=O)NCCC(C)(C)C)cc1	-19	-22
Cc1ccc(CN(Cc2nc3cc(C)ccc3o2)C(=O)c2c(F)cccc2F)cc1	-1	-4
C=CC[n+]1c2n(c3ccc(F)c(F)c31)CCCCC2	2	1
O=C(Cc1c[nH]c2ccccc12)NN1C(=O)C=C(c2ccccc2)C1=O	-12	-24
COc1cccc(C(=O)Nc2ccc(N3CCN(c4ccccc4OC)CC3)c(C(=O)NCc3ccccc3)c2)c1	14	8
NC1(C(=O)NCc2cccnc2Oc2ccc(F)cc2F)CCC1	18	0
Cc1ccc(NC(=O)C(C)C)c(C(=O)N2CCCN(C)CC2)c1	1	-4
COc1cc(CN(CC(O)COc2ccccc2C)C2CC2)cc(OC)c1 (stereo unspecified)	9	20
CC(=O)Nc1ccc(-c2nccn2CCn2cccn2)cc1	21	7
O=C(Nc1ccc2oc(-c3cccs3)nc2c1)C1CC1	22	29
COc1ccc(NC(=S)Nc2ccc3cn[nH]c3c2)cc1	1	-1
c1ccc(-c2ccccc2-c2cncnc2)cc1	2	1

A portion of the library (hit frequency here may not be typical).
